Source: PubChem (ICCB-Longwood Screening Facility, Harvard Medical School)
Sa growth inh: S. aureus growth inhibition; S. aureus RN4220 growth, OD600, 20 h, 42 °C; active compounds read low; relative growth, % (test concentration not listed); hit rate 0.53% among 170,000;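 active = growth at 42 °C up to 50% and 20 or more points under that at 30 °C, or under 10% at both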;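 also: 300 nL library stock went into each well; scaled to the means of positive and negative controls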
GIV Gai3 FP: inhibitors of GIV GBA-motif binding to rat Galpha-i3; P08753; Galpha-i3/FITC-GIV peptide fluorescence polarization, 90 min; active compounds read low; scaled: aluminum fluoride 0%, vehicle 100%; percent of control (FP), % (no concentration beside the values); hit rate 0.42% among 210,000; AID 1224905;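 active = replicate mean at 85% of control or lower, very high polarization wells dropped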;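 also: wells of about 15 µL received 100 nL stock; the first replicate is given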
Target sequence (P08753 whole entry, looked up): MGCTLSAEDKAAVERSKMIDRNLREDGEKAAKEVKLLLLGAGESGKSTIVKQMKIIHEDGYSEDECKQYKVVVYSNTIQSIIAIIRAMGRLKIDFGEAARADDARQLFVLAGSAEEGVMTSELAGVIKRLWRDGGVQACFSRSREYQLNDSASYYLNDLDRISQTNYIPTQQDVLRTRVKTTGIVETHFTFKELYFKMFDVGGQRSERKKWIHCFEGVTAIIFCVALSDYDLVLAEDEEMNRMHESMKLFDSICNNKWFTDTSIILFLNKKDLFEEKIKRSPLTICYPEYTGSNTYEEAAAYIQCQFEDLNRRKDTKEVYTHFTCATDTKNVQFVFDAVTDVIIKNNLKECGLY
HCMV UL50-53 inh: cytomegalovirus nuclear egress complex inhibition. hit rate 0.15% among 190,000. HTRF UL50-UL53 interaction, normalized percent inhibition. inhibition, % (no concentration beside the values). AID 1918969;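 active = both replicates at 50% or more, plus weaker picks with an unusually low signal ratio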;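 also: stock transfer was 100 nL into about 20 µL; 0% = negative control wells and 100% = wells with untagged competitor protein; inactives centre near -12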
Sa growth inh second temp: recorded beside Sa growth inh, whose call it bears; relative growth, %; measured here: growth at 30 °C;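 optical density after 20 h as mean of two plates; 100% = untreated growth and lower means inhibition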
Active calls of the source: *; & = joins results of further samples. Random draw from the library, and some 0.79% of all compounds hit somewhere here.

For Cc1ccc(C(=O)c2oc3ccccc3c2NC(=O)C2COc3ccccc3O2)cc1 (stereo not given) the results were Sa growth inh 95, GIV Gai3 FP 102 and Sa growth inh second temp 91.
`CC(C)NC(=O)c1cn2c3c(ccc(Cl)c3c1=O)OC(C)C2` (stereo not given) gave Sa growth inh 101, GIV Gai3 FP 101&99, HCMV UL50-53 inh 33 and Sa growth inh second temp 86.
Screening O=C(Oc1cccc(Br)c1)C1CCCCC1 returned Sa growth inh 89, HCMV UL50-53 inh -18 and Sa growth inh second temp 91.
`O=C1CC(C2CCCC=C2N2CCOCC2)C(=O)N1Cc1ccccc1` (stereo not given) gave Sa growth inh 100, GIV Gai3 FP 103, HCMV UL50-53 inh -29 and Sa growth inh second temp 97.
`O=C(c1ccccc1)c1ccc(OCC(O)CNCC2CCCO2)cc1` (stereo not given) gave Sa growth inh 86, HCMV UL50-53 inh -24 and Sa growth inh second temp 89.
`CC(=O)Oc1c(C)cc(O)c2ccccc12` gave Sa growth inh 77, GIV Gai3 FP 102, HCMV UL50-53 inh -22 and Sa growth inh second temp 80.
COc1ccc(C(=O)Nc2ccc3c(c2)CCCN3S(=O)(=O)c2ccc(C)cc2)c(OC)c1 was read as Sa growth inh 96, GIV Gai3 FP 104 and Sa growth inh second temp 94.
For CCOC(=O)c1ccc(NC(=O)C2=C(C)Nc3nc(CCCO)nn3C2c2ccc(OC)cc2)cc1 (stereo not given) the results were Sa growth inh 108, GIV Gai3 FP 102, HCMV UL50-53 inh -9 and Sa growth inh second temp 87.
Screening COC(C(=O)N/N=C/c1cc(Br)c(C)o1)c1ccccc1 (stereo not given) returned Sa growth inh 95, GIV Gai3 FP 112, HCMV UL50-53 inh -10 and Sa growth inh second temp 86.
`Nc1sc(=S)n(-c2ccccc2)c1-c1nc2ccccc2s1` gave Sa growth inh 78, HCMV UL50-53 inh -24 and Sa growth inh second temp 74.
Screening CCS(=O)(=O)N1CCC(n2cnc3cccnc32)CC1 returned GIV Gai3 FP 101 and HCMV UL50-53 inh -12.
For O=C(CN1CCC(Cc2ccccc2)CC1)c1c[nH]c(C(=O)N2CCCC2)c1 the results were Sa growth inh 90, HCMV UL50-53 inh 2 and Sa growth inh second temp 107.
For CCOC(=O)c1cc(CC)sc1NC(=O)CCN1CCCCC1 the results were Sa growth inh 103, GIV Gai3 FP 109, HCMV UL50-53 inh -12 and Sa growth inh second temp 86.
For COc1ccc(NC(=O)Cn2c(=O)oc3cc(S(=O)(=O)NCc4ccccc4)ccc32)cc1OC the results were Sa growth inh 107, GIV Gai3 FP 102 and Sa growth inh second temp 85.
CC(C)NC(=O)CSc1nc(-c2ccco2)cc(C(F)(F)F)n1 was read as Sa growth inh 98, GIV Gai3 FP 97, HCMV UL50-53 inh -17 and Sa growth inh second temp 87.
O=C(O)CCOc1ccccc1F was read as Sa growth inh 98, HCMV UL50-53 inh 1 and Sa growth inh second temp 100.
Screening O=C(CCCn1c(=O)c2cccn2c2cccnc21)Nc1ccccc1F returned Sa growth inh 97, GIV Gai3 FP 97 and Sa growth inh second temp 88.
Screening COc1ccc(-c2nsc(NC(=O)C(C)Oc3ccc(Cl)c(C)c3)n2)cc1 (stereo not given) returned Sa growth inh 84, GIV Gai3 FP 102, HCMV UL50-53 inh 1 and Sa growth inh second temp 37.
`COc1cc(OC)c2c(C(=O)O)cc(-c3ccc(O)c(OC)c3)nc2c1` gave Sa growth inh 123, GIV Gai3 FP 96, HCMV UL50-53 inh -8 and Sa growth inh second temp 90.
CCOC(=O)CSc1nc2c([nH]c3ccccc32)c(=O)n1-c1ccc(OC)cc1 was read as Sa growth inh 102, GIV Gai3 FP 103 and Sa growth inh second temp 102.
O=C(Nc1cc(Cl)ccc1Cl)c1cc(S(=O)(=O)N2CCc3ccccc3C2)ccc1F was read as Sa growth inh 153, GIV Gai3 FP 101 and Sa growth inh second temp 69.
`CC1CC(C)CN(S(=O)(=O)c2ccc3c(c2)CCN3C(=O)CCC(=O)O)C1` (stereo not given) gave Sa growth inh 107, GIV Gai3 FP 101, HCMV UL50-53 inh -6 and Sa growth inh second temp 92.
For FC(F)(F)COc1nc(OCC(F)(F)F)nc(N(c2ccccc2)c2ccccc2)n1 the results were Sa growth inh 99, GIV Gai3 FP 99, HCMV UL50-53 inh -4 and Sa growth inh second temp 77.
`Cc1nnc(Sc2cc(C(=O)NCCCN3CCOCC3)c3ccccc3n2)s1` gave Sa growth inh 97, GIV Gai3 FP 101, HCMV UL50-53 inh -3 and Sa growth inh second temp 95.
For COc1ccc(CNC(=O)CCCn2nc(C)n3c(cc4sccc43)c2=O)cc1 the results were Sa growth inh 108, GIV Gai3 FP 101, HCMV UL50-53 inh -13 and Sa growth inh second temp 83.
Screening Cc1cc(=O)[nH]c2c1c(=O)[nH]n2C(C)C returned GIV Gai3 FP 104 and HCMV UL50-53 inh -26.
CC(=O)Nc1sc2c(c1C#N)CCCCC2 was read as Sa growth inh 108, HCMV UL50-53 inh -8 and Sa growth inh second temp 80.
Screening O=C(Nc1ccc2nc3n(c(=O)c2c1)CCCCC3)C(=O)Nc1ccccc1F returned Sa growth inh 103, GIV Gai3 FP 97, HCMV UL50-53 inh -20 and Sa growth inh second temp 86.
`CCc1nnc(NC(=O)c2ccc3c(c2)S(=O)(=O)N=C2CCCCCN23)s1` gave Sa growth inh 95, HCMV UL50-53 inh -4 and Sa growth inh second temp 91.
`Cc1noc(C)c1S(=O)(=O)N1Cc2ccccc2CC1C(=O)Nc1ccc(Cl)cc1` (stereo not given) gave Sa growth inh 95, GIV Gai3 FP 103, HCMV UL50-53 inh -10 and Sa growth inh second temp 76.
For Cc1ccc(Cn2cnc3c(cnn3C)c2=O)cc1 the results were Sa growth inh 82, GIV Gai3 FP 104 and Sa growth inh second temp 81.
Cc1ccc(NCc2cccc3c2CN(CC2CCCO2)C3)cc1 (stereo not given) was read as Sa growth inh 90, GIV Gai3 FP 117 and Sa growth inh second temp 79.
O=C(C1CC(=O)N(c2ccccc2)C1)N(Cc1ccccc1)Cc1ccccc1 (stereo not given) was read as Sa growth inh 93, GIV Gai3 FP 96 and Sa growth inh second temp 72.
For OC(CN1CCN(c2ccccc2F)CC1)Cn1nnnc1-c1ccccc1 (stereo not given) the results were Sa growth inh 101, GIV Gai3 FP 102, HCMV UL50-53 inh -7 and Sa growth inh second temp 89.
Cc1cc(C(=O)N2N=C(C3CC3)CC2(O)C(F)F)cs1 (stereo not given) was read as Sa growth inh 94, GIV Gai3 FP 102, HCMV UL50-53 inh -20 and Sa growth inh second temp 86.
Screening O=c1c(N2CCN(c3cccc(C(F)(F)F)c3)CC2)csc2ccccc12 returned Sa growth inh 120, GIV Gai3 FP 101 and Sa growth inh second temp 81.
`Cc1ccc2occ(CC(=O)N(Cc3ccc(C(C)C)cc3)C3CCS(=O)(=O)C3)c2c1` (stereo not given) gave Sa growth inh 99, GIV Gai3 FP 105, HCMV UL50-53 inh -12 and Sa growth inh second temp 76.
Cc1ccc(Nc2nc(N)nc(CSc3nccn3C)n2)cc1 was read as Sa growth inh 75, GIV Gai3 FP 102, HCMV UL50-53 inh 9 and Sa growth inh second temp 89.
CCc1nn(CC(=O)N2CCN(C)CC2)c(=O)c2cccn12 was read as Sa growth inh 110, GIV Gai3 FP 106, HCMV UL50-53 inh 4 and Sa growth inh second temp 95.
For Fc1ccc(Nc2nc3ccccc3nc2Nc2ccc(F)cc2)cc1 the results were Sa growth inh -0.4*, GIV Gai3 FP 106 and Sa growth inh second temp -0.2*.
For Cc1ccc(NC(=O)CCc2c(C)[nH]n(-c3nc(C)cs3)c2=O)c(C)c1 the results were GIV Gai3 FP 104 and HCMV UL50-53 inh -23.
For O=C(c1ccccc1)N(c1ccc(Cl)cc1)C1C=CS(=O)(=O)C1 (stereo not given) the results were Sa growth inh 97, GIV Gai3 FP 102 and Sa growth inh second temp 84.
`N[C@@H](Cc1c[nH]c2ccccc12)C(=O)O` gave GIV Gai3 FP 103 and HCMV UL50-53 inh -11.
For COc1ccc(OCC(=O)Nc2ccc3nn(-c4ccc(OC)cc4)nc3c2)cc1 the results were Sa growth inh 105, GIV Gai3 FP 99 and Sa growth inh second temp 88.
`O=C(O)c1ccc(NC(=O)C2CC2)cc1` gave Sa growth inh 103, HCMV UL50-53 inh -6 and Sa growth inh second temp 81.

Arranged by number of heavy atoms (falling): part of the list above
For OC(CN1CCN(c2ccccc2F)CC1)Cn1nnnc1-c1ccccc1 (stereo not given) the results were Sa growth inh 101, GIV Gai3 FP 102, HCMV UL50-53 inh -7 and Sa growth inh second temp 89.
For Fc1ccc(Nc2nc3ccccc3nc2Nc2ccc(F)cc2)cc1 the results were Sa growth inh -0.4*, GIV Gai3 FP 106 and Sa growth inh second temp -0.2*.
For Cc1ccc(Cn2cnc3c(cnn3C)c2=O)cc1 the results were Sa growth inh 82, GIV Gai3 FP 104 and Sa growth inh second temp 81.

(more compounds)
CC(NC(=O)CCC1=NS(=O)(=O)c2ccccc2N1)c1ccc2c(c1)OCCO2 (stereo not given) was read as Sa growth inh 103, GIV Gai3 FP 106, HCMV UL50-53 inh -5 and Sa growth inh second temp 92.
Cc1ccc(NC(=S)N(C)/N=C/c2ccccn2)cc1Cl was read as Sa growth inh 93, GIV Gai3 FP 109, HCMV UL50-53 inh 5 and Sa growth inh second temp 63.
For C/C(=N\NC(=O)C1CC1)c1ccc(C)cc1 the results were Sa growth inh 103, HCMV UL50-53 inh -12 and Sa growth inh second temp 92.
`CC(C)N(Cc1ccccc1)C(=O)c1cc2ccc3cccnc3c2[nH]1` gave Sa growth inh 78, GIV Gai3 FP 102 and Sa growth inh second temp 80.
For Cc1ccc2c(c1)-c1c(c(C(=O)NCCc3ccccc3)nn1C)CS2 the results were Sa growth inh 91, GIV Gai3 FP 97 and Sa growth inh second temp 97.
`Cc1cc(Br)ccc1NC(=O)COc1cc(=O)n(C)c2ccccc12` gave Sa growth inh 87, GIV Gai3 FP 108, HCMV UL50-53 inh -5 and Sa growth inh second temp 103.
Screening CC1(C)CC2(CCO1)OC(=O)CC2C(=O)NCCc1ccccc1 (stereo not given) returned Sa growth inh 88, GIV Gai3 FP 110, HCMV UL50-53 inh -7 and Sa growth inh second temp 83.
For Cc1nc2ccc(N)cc2s1 the results were Sa growth inh 92, GIV Gai3 FP 100, HCMV UL50-53 inh -22 and Sa growth inh second temp 85.
CCCc1cc(=O)[nH]c(SCC(=O)NC)n1 was read as Sa growth inh 89, GIV Gai3 FP 100, HCMV UL50-53 inh -25 and Sa growth inh second temp 92.
O=S(=O)(NCc1ccccc1)c1ccc(-c2cc(C(F)(F)F)on2)s1 was read as Sa growth inh 96, GIV Gai3 FP 100, HCMV UL50-53 inh 2 and Sa growth inh second temp 106.
For c1ccc(N=C2SC(=NC3CCCCC3)C3=C2CCCC3)cc1 the results were Sa growth inh 92, GIV Gai3 FP 98, HCMV UL50-53 inh -37 and Sa growth inh second temp 86.
Cc1ccc(C2C=C(c3ccc(Cl)cc3)Nc3nc(N4C(=O)CCC4=O)nn32)cc1 (stereo not given) was read as Sa growth inh 106, GIV Gai3 FP 108, HCMV UL50-53 inh -1 and Sa growth inh second temp 94.
COc1cccc(NC(=O)CN(CC(=O)Nc2cccc(OC)c2)CC2COc3ccccc3O2)c1 (stereo not given) was read as Sa growth inh 105, HCMV UL50-53 inh -4 and Sa growth inh second temp 101.
For O=C(Nc1ccccc1F)c1nc(-c2ccccc2)n(-c2ccccc2Cl)n1 the results were GIV Gai3 FP 101 and HCMV UL50-53 inh 8.
CCOc1cccc2sc(NN)nc12 was read as Sa growth inh 47, GIV Gai3 FP 116, HCMV UL50-53 inh -7 and Sa growth inh second temp 35.

No new results follow: entries from further up.
CC(NC(=O)CCC1=NS(=O)(=O)c2ccccc2N1)c1ccc2c(c1)OCCO2 (stereo not given) was read as Sa growth inh 103, GIV Gai3 FP 106, HCMV UL50-53 inh -5 and Sa growth inh second temp 92.
Cc1ccc(NC(=S)N(C)/N=C/c2ccccn2)cc1Cl was read as Sa growth inh 93, GIV Gai3 FP 109, HCMV UL50-53 inh 5 and Sa growth inh second temp 63.
For C/C(=N\NC(=O)C1CC1)c1ccc(C)cc1 the results were Sa growth inh 103, HCMV UL50-53 inh -12 and Sa growth inh second temp 92.

New compounds follow:
Screening Cc1cccc(OCC(=O)Nc2ccccc2)c1 returned Sa growth inh 91, HCMV UL50-53 inh -4 and Sa growth inh second temp 87.
`Cc1cc(C)nc(NS(=O)(=O)c2ccc(NC(=O)c3cc([N+](=O)[O-])ccc3Cl)cc2)n1` gave GIV Gai3 FP 106 and HCMV UL50-53 inh -83.
`CCC1CCCCN1C(=O)CN1C(=O)CSc2ccc(S(=O)(=O)N(CC)CC)cc21` (stereo not given) gave GIV Gai3 FP 100 and HCMV UL50-53 inh -13.
`O=C(Nc1ccc(F)c(F)c1)C1Nc2ccc(Cl)cc2S(=O)(=O)N1` (stereo not given) gave GIV Gai3 FP 102 and HCMV UL50-53 inh -6.
O=C(O)c1ccccc1SC(F)F was read as Sa growth inh 105, HCMV UL50-53 inh -29 and Sa growth inh second temp 89.
`COc1ccc(CN(C)c2cc(=O)n3nc(-c4ccccc4)sc3n2)cc1` gave GIV Gai3 FP 118 and HCMV UL50-53 inh 15.
CCCn1c(SCC(=O)NCC)nc2sc3c(c2c1=O)CCC3 was read as Sa growth inh 79, HCMV UL50-53 inh -33 and Sa growth inh second temp 86.
Screening CC1=CC(C)=N/C1=C/c1c(O)[nH]c(=O)[nH]c1=O returned Sa growth inh 89, GIV Gai3 FP 104, HCMV UL50-53 inh -67 and Sa growth inh second temp 90.
